Vaccinia mCherry: vaccinia inhibition (mCherry reporter); Vaccinia virus mCherry reporter infection, fluorescence; about a quarter of the inactives have no number; Potency, µM (titrated, usually from 36.5 µM), inactives show at the top dose activity change, negative = inhibition, actives largely listed as inhibitors; actives 0.63% (n = 310,000); active = well fitted inhibition curve with a large enough effect; inconclusive = small, poorly fitted or top-dose-only effect; inactive = no such curve, though single readings can be large or run the other way; tested in A549 cells; note: nearly all actives have a fitted effect of over 35% in size; inactives centre near -10
VACV Venus inh: vaccinia inhibition (Venus reporter); Vaccinia virus Venus reporter expression, fluorescence; Potency, µM (series often up to 36.5 µM), for inactives: at the top dose activity change, negative = inhibition, hits mostly inhibitors; actives 0.46% (n = 330,000); active means well fitted inhibition curve with a large enough effect; inconclusive means small, poorly fitted or top-dose-only effect; inactive means no such curve, though single readings can be large or run the other way; tested in A549 cells; note: nearly all actives have a fitted effect of over 30% in size; inactives centre near -10
* marks the source's active call; other numbers are inactive results; i = inactive; u = inconclusive; x = no result given; [ ] = another dose, or the depositor's remark. % is set by controls: 0 for no effect and ±100 for the full control effect; potency is the fitted concentration of half-maximal effect.

SMILES	Vaccinia mCherry	VACV Venus inh
CC(C)C[C@@H]1NC(=O)[C@H](CCCN)NC(=O)[C@H](C(C)C)NC(=O)[C@@H]2CCCN2C(=O)[C@@H](Cc2ccccc2)NC(=O)[C@H](CC(C)C)NC(=O)[C@H](CCCN)NC(=O)[C@H](C(C)C)NC(=O)[C@@H]2CCCN2C(=O)[C@@H](Cc2ccccc2)NC1=O	4.5µM*	u
Cc1cccc(N2CCN(c3ccc(C(N)=O)cc3[N+](=O)[O-])CC2)c1C	-18%	-9%
COC(=O)c1cnc(Nc2nc(C(N)COCc3ccccc3)cs2)nc1C(F)(F)F (configuration not stated)	-2%	-4%
Cc1cc(C)c(NC(=O)CS(=O)CC(=O)Nc2ccc(N3CCOCC3)cc2)c(C)c1 (configuration not stated)	u	18%
CCOC(=O)Nc1sc(C)nc1-c1ccccc1	-5%	-5%
COc1ccc(CN2C(=O)C(CC(=O)NCCN3CCOCC3)CC(C(=O)N(C(C)C)C(C)C)=C2C)cc1 (configuration not stated)	-2%	-4%
COc1ccc(NC(=O)CCOc2ccccc2)cc1	x	-7%
Cc1[nH]c2ccccc2c1/C=N/NC(=O)c1cc(-c2ccccc2)n[nH]1	-16%[7.34 µM]	-8%[7.34 µM]
O=C(COc1ccccc1Cl)NCCNC(=O)c1cccnc1	u	-6%
CC(O)(c1ccccc1)c1nc(-c2csc3ccccc23)cs1 (configuration not stated)	25%	-18%
Cc1ccc(Nc2cc(C)nc(-c3ccccc3)n2)cc1	u	u
CCN(Cc1ccccc1)S(=O)(=O)c1ccc(S(=O)(=O)N2CCN(CCC#N)CC2)cc1	-10%	-5%
CSc1cccc(NC(=O)CN(C)S(=O)(=O)c2ccc3c(c2)CCCN3C(C)=O)c1	-12%	-12%
Cc1ccc(-c2n[nH]c(=O)c3ccccc23)cc1S(=O)(=O)NCCN1CCOCC1	-7%	-3%
COCCNC(=O)C1(C)CCCN(C(=O)c2cnc3ccccc3n2)C1 (configuration not stated)	-11%	-5%
COc1ccc(S(=O)(=O)c2c(O)c3ccc(C(=O)Nc4ccccc4F)cc3[nH]c2=O)cc1	i[7.34 µM]	0%[7.34 µM]
Cc1ccccc1NC(=O)Cn1nc(C)c2ccccc2c1=O	-23%	-17%
CCOC(=O)C1(CCOc2ccccc2)CCN(Cc2cccs2)CC1	-14%	-9%
CC1Cc2ccccc2N1C(=O)CSCC(=O)O (configuration not stated)	x	25%
O=C(C1CCCN(Cc2nc(-c3ccc(Cl)cc3)no2)C1)N1CCOCC1 (configuration not stated)	-3%	-1%
COC(=O)Nc1nc2ccc(Br)cc2s1	i	-10%
Cc1c([N+](=O)[O-])cc(C(=O)Nc2ccc3ncccc3c2)cc1[N+](=O)[O-]	-12%	-6%
CCOC(=O)c1ccc(NC(=S)NCCCN2CCCC2=O)cc1	-8%	-15%
COc1ccc(C(CNC(=O)C(C)Oc2ccc(Br)cc2)N2CCCC2)cc1 (configuration not stated)	0%	-11%
Cc1noc(C)c1S(=O)(=O)N(CC(=O)NCc1ccccc1)c1ccc(C(C)C)cc1	-7%	-6%

The results go on.
SMILES	Vaccinia mCherry	VACV Venus inh
O=C(OCc1cc2ccccc2[nH]c1=O)c1ccccn1	x	0%
CCOc1ccc(NC(=O)CN(C)C(=O)Cn2c(=O)oc3ccccc32)cc1OCC	-7%	4%
CC(=O)N1CCN(c2ccc(NCc3ccc(F)cc3)cc2)CC1	-4%	2%
Cc1ccc(C(C)NC(=O)Cc2cccs2)c(C)c1 (configuration not stated)	i	-17%
CCOC(=O)c1c(NC(=O)CN2C(=O)NC3(CCC(CC)CC3)C2=O)sc(C)c1-c1ccc(C)cc1 (configuration not stated)	-14%	-3%
CCOC(=O)CNC(=O)N1CCC(CCC(=O)N(C)Cc2ccccc2)CC1	-14%	3%
Cc1nn(C)cc1CNC(=O)c1ccc(F)cc1	-8%	-10%
CC(=O)c1cc(Cl)ccc1OCc1cccc(S(=O)(=O)N2CCOCC2)c1	-6%	-4%
Cc1ccc(S(=O)(=O)N2CCN(C(=O)COC(=O)CSc3ccccc3)CC2)c(C)c1	-7%	-1%
Cc1ccc(NC(=O)COC(=O)c2ccc(F)cc2Cl)c(Br)c1	-5%	-8%
CCOc1ccc(C(=O)CCC(=O)Nc2cccc(S(=O)(=O)N3CCCCC3)c2)cc1	-3%	-11%
COc1ccccc1-n1c(CNC(=O)c2ccco2)n[nH]c1=S	-14%	-7%
Cc1ccc2c(c1)COc1c3ccc(C(=O)N[C@@H](CO)C(C)C)cc3nn1-2	i	u
COc1ccc(-n2cnc3c(sc4nccc(N(C)C)c43)c2=O)cc1	-24%	-6%
CCNCC(=O)N1c2ccccc2CCc2ccc(NC(C)=O)cc21	-20%	-5%
O=C(O)CCCC(=O)NCCc1ccncc1	-16%	-12%
O=C(Oc1ccc(Cl)c2cccnc12)C12CC3CC(CC(C3)C1)C2	i	2%
CC(C)c1ccc(C2OCCCO2)cc1	i	-12%
Cc1ccc(S(=O)(=O)N2CCOCC2)cc1C(=O)N1CC(C)OC(C)C1 (configuration not stated)	-16%	-5%
Clc1cccc(CSC2=NCCCN2)c1	-1%	-5%
CC(C)(CO)CNc1ccn2nccc2n1	-13%	-14%
COc1ccc(CN2C(=O)C(CC(=O)NCc3cccc4ccccc34)CC(C(=O)N3CCOCC3)=C2C)cc1 (configuration not stated)	-16%	-16%
CC(C)CC[n+]1ccn(C2=C([O-])c3ccccc3C(=O)/C2=N\S(=O)(=O)c2ccccc2)c1	u	u
O=C1ON=C(c2ccc(Cl)cc2)/C1=C/c1ccc(O)cc1	7%	8%
O=C1/C(=C/c2ccccc2)Oc2cc(OC(=O)N3CCOCC3)ccc21	0%	-17%

Among those listed so far, these contain a Cl atom:
SMILES	Vaccinia mCherry	VACV Venus inh
O=C(COc1ccccc1Cl)NCCNC(=O)c1cccnc1	u	-6%
O=C(C1CCCN(Cc2nc(-c3ccc(Cl)cc3)no2)C1)N1CCOCC1 (configuration not stated)	-3%	-1%
CC(=O)c1cc(Cl)ccc1OCc1cccc(S(=O)(=O)N2CCOCC2)c1	-6%	-4%
Cc1ccc(NC(=O)COC(=O)c2ccc(F)cc2Cl)c(Br)c1	-5%	-8%
O=C(Oc1ccc(Cl)c2cccnc12)C12CC3CC(CC(C3)C1)C2	i	2%
Clc1cccc(CSC2=NCCCN2)c1	-1%	-5%
O=C1ON=C(c2ccc(Cl)cc2)/C1=C/c1ccc(O)cc1	7%	8%

(list continues)
SMILES	Vaccinia mCherry	VACV Venus inh
CCS(=O)(=O)c1ncc(Cl)c(C(=O)NCc2ccc(OC)cc2)n1	-17%[7.34 µM]	-9%[7.34 µM]
COc1ccc(Nc2ncc(C(=O)N3CCN(c4ccccc4OC)CC3)c3ccccc23)cc1	-17%	-12%
O=C(/C=C/c1ccccc1)N1CCN(c2ccc([N+](=O)[O-])c(N3CCOCC3)c2)CC1	-10%	-12%
COc1cc(C(=O)Nc2cc(C)cc(C)c2)c(-n2cnnn2)cc1OC	-5%	-5%
Cc1ccc(Cl)cc1NC(=O)CCn1cnc2ccccc2c1=O	-9%	2%
Cc1cc(C(=O)O)c(CCCN)s1	-2%	-1%
Cc1cc(SCC(=O)N2CCCC2=O)nc2ccccc12	-7%	-2%
CCc1ccccc1OCC(=O)Nc1nc(-c2cccnc2)cs1	u	u
O=C(c1ccccc1Cl)N1CCC(c2nc3ccccc3s2)CC1	-26%	-6%
COc1cc(C#N)ccc1OCC(=O)NCc1cccs1	-13%	-1%
N#CC1=C(N)Oc2n[nH]c(-c3cccs3)c2C1C1CCCCC1 (configuration not stated)	u	u
COc1ccc2c(c1)c1c(c(=O)n(-c3cccc(C)c3)c(=O)n1CC(=O)NCC1CCCO1)n2C (configuration not stated)	5%	-1%
O=C1[C@@H]2C(c3cccnc3)=NO[C@@H]2C(=O)N1c1ccc2ccccc2c1	-1%	-11%
COc1ccc(S(=O)(=O)N(C)CC(=O)N2CCOCC2)cc1Cl	x	1%
CC(=O)c1c(C)oc2ccc(N(C(=O)C3CCCCC3)S(=O)(=O)c3cc([N+](=O)[O-])ccc3C)cc12	-7%	1%
CCOc1ccccc1-n1c(SCC(=O)NCc2ccco2)nnc1-c1ccncc1	-25%	-17%
COCc1cc(C(C)=O)ccc1OC	i	-8%
N#CC1=C2SCN(C3CCCCC3)CN2C(=O)CC1c1ccc(Br)cc1 (configuration not stated)	-9%	8%
Cc1cc(C)n2nc(SCc3nc4ccccc4[nH]3)nc2n1	-13%	-9%
O=C(CCc1ccccc1)Nc1cc2c3c(c1)CCC(=O)N3CCC2	-13%	-4%
COc1cc(CO)c(Br)cc1OCC(N)=O	-13%	-18%
COc1cc(/C=N/n2c(-c3cc(C)[nH]n3)n[nH]c2=S)cc(OC)c1O	i	-5%
CCOC(=O)NNc1cc(C(F)(F)F)ccn1	-3%	-16%
COc1cc(OC)c(C(=O)NC2CC(C)(C)NC(C)(C)C2)cc1OC	-16%	-6%
O=C(NCCc1ccc(Cl)cc1)C1CCN(S(=O)(=O)c2ccc3[nH]ccc3c2)CC1	-17%	-7%

Further entries:
SMILES	Vaccinia mCherry	VACV Venus inh
CCCNS(=O)(=O)c1ccc(CCC(=O)Nc2ccc3c(c2)OCCO3)cc1	-14%	-16%
CCc1ccc(Cn2nnc3c(=O)[nH]c(C4CCCN(C(=O)c5cccc(Cl)c5)C4)nc32)cc1 (configuration not stated)	-8%	-14%
Cc1ccccc1OC(=O)c1cc(-c2ccc3c(c2)OCCO3)on1	-8%	-6%
O=C(Cn1c(=O)cnc2ccccc21)N1CCN(S(=O)(=O)c2cccc([N+](=O)[O-])c2)CC1	-13%	-16%
COc1cccc(COC(=O)c2ccc(S(=O)(=O)N3CCC(C)CC3)cc2)c1OC	-16%	-7%
CCOc1ccc(Br)cc1S(=O)(=O)Nc1cccnc1	-10%	-13%
CN(C)S(=O)(=O)c1ccc(Cl)c(NC(=O)CSc2nnnn2-c2ccc(O)cc2)c1	-2%	-14%
O=C(CCN1C(=O)c2ccccc2C1=O)Nn1cnnc1	-15%	4%
Cc1nn(-c2ccccc2)nc1C(=O)c1c(C)[nH]n(-c2ccccc2)c1=O	i	0%
CCc1ccc(NC(=O)CSc2nc(C)cs2)cc1	i	-5%
CC(=O)Oc1ccccc1C(=O)Nc1ccccc1C(=O)N1CCCCC1	-7%	-23%
CSc1cc(-c2ccccc2)n(Cc2ccc(Cl)cc2Cl)c(=O)c1C#N	-24%	-13%
O=C(NNC(=O)c1ccccc1F)c1ccc(S(=O)(=O)N2CCCCC2)cc1	-8%	4%
O=S(=O)(c1ccccc1)N1CCCCC1CCc1ccccc1 (configuration not stated)	-10%	-5%
CC(=O)c1c(C)[nH]c(C(=O)Nc2ccc(Cl)c(S(=O)(=O)N3CCOCC3)c2)c1C	u	-26%
O=C(N[C@@H](Cc1ccccc1)C(=O)N[C@@H](Cc1ccccc1)C(=O)O)OCc1ccccc1	-23%	1%
O=C(CO/N=C/c1ccccc1)N1c2ccccc2Oc2ccccc21	2%	-1%
CCCC(=O)OCC(=O)Nc1ccc(N=Nc2ccccc2)cc1	u	u
CCOC(=O)c1cc2c(=O)n3ccccc3nc2n(Cc2ccccc2)c1=N	-3%	0%
CN(Cc1ccon1)Cc1cn[nH]c1-c1ccc(-c2ccccc2)cc1	i	-14%
Cc1csc2ncc(C(=O)N3CCc4ccccc43)c(=O)n12	-11%	-17%
Cc1ccc(-n2c(=S)sc3c(=O)n(-c4ccc(F)cc4)c(SCC(=O)O)nc32)cc1C	-11%	-10%
Cc1oc2c(CN3CCCC3)c(O)ccc2c(=O)c1-c1ccc(Br)cc1	-3%	-2%
C=CCC1(CC=C)CCCN1Cc1nc(COc2ccccc2)no1	-14%	2%
Cn1c(CO)cnc1SCC(=O)c1ccc(Br)cc1	-5%	-9%

Following part.
SMILES	Vaccinia mCherry	VACV Venus inh
COc1ccc2c(C)c(CCC(=O)N3C[C@H]4C[C@@H](C3)c3cccc(=O)n3C4)c(=O)oc2c1	9%	17%
CCNC(=O)C1(C)CCCN(CCOc2ccc(Cl)cc2)C1 (configuration not stated)	-3%	-7%
CN(Cc1nc(Cc2cccc(F)c2)no1)CC1CCOCC1	-10%	-4%
CCC1CCCCN1CCCNC(=O)c1c(O)nc2c(C)cccn2c1=O (configuration not stated)	-5%	-2%
CCOC(=O)CSc1ccc(S(=O)(=O)N2CCC(C)CC2)cc1[N+](=O)[O-]	i	-10%
CCCSCCCNC(=O)c1sc2nc(C)cc(C)c2c1-n1cccc1	-18%	-16%
O=C(CSc1nnc(-c2csc3c2CCCC3)o1)Nc1ccccc1	u	-24%
CC1CCCCC1NC(=O)c1nnc(Cc2ccc(Cl)cc2)o1 (configuration not stated)	-9%	-1%
COc1cc(OC)cc(C(=O)Nc2nc(CC(=O)NCc3ccccc3OC)cs2)c1	-23%	-28%
CCn1c2ccccc2c2cc(NC(=O)Cc3ccc(S(=O)(=O)N4CCOCC4)s3)ccc21	u	-20%
COC(=O)/C=C1/SC(=Nc2ccc(Cl)c(Cl)c2)NC1=O	i	6%
O=C(C[n+]1cc(-c2ccc(Cl)c(Cl)c2)n2c1CCC2)c1cccs1	-5%	-24%
O=C(NCCCN1CCCC1)c1ccc2c(c1)N(Cc1ccccc1F)C(=O)c1ccccc1S2=O (configuration not stated)	-16%[7.34 µM]	0%[7.34 µM]
Cn1c(=O)c2cc(NC(=O)NCCc3ccccc3)ccc2n1Cc1ccc(F)cc1	-17%	-8%
COc1c(OC(C)=O)ccc(/C=C/c2ccc3cccc(OCc4ccccc4)c3n2)c1[N+](=O)[O-]	-30%	u
CCCOc1ccc(F)cc1-c1cc(C(=O)NCc2ccccc2OC)[nH]n1	u	u

Bioassay records (PubChem BioAssay)
